Measles inh = inhibitors of measles virus growth in infected cells; z-score (test concentration not listed); infected Vero cells, GFP fluorescence, 64 h; active compounds read low; actives 0.1% (n = 33,000);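 active = z-score under -3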;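 also: score is relative to mean and SD of the compound wells of a plate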
Starred values were filed as active, the others as inactive. A portion of the library; the hit share may differ from the screen's.

item | SMILES | Measles inh
1 | COc1ccc2c(c1)nc(SCc1ccccc1)n2C | 1.5
2 | O=C(CCCCCn1c(=S)[nH]c2ccccc2c1=O)N1CCN(c2ccc(F)cc2)CC1 | -0.72
3 | O=C(O)CCNC(=O)c1ccco1 | 0.08
4 | CCn1cc(C(=O)Nc2ccc(OC)cc2OC)c2cc(OC)c(OC)cc2c1=O | 1.8
5 | CCOC(=O)c1cccc(N2C(=O)C3C4CCC(C4)C3C2=O)c1 (centres undefined) | -0.6
6 | Cc1ccc2c(c1)N(CC(=O)NCc1cccnc1)C(=O)CO2 | 1
7 | CCC(=O)Nc1c2c(nn1-c1cccc(Cl)c1)CS(=O)(=O)C2 | -0.08
8 | COCCNc1ncnc2c1cnn2-c1ccc(C)cc1C | 0.11
9 | CCc1ccc(Nc2cc(C(=O)N3CCCC3)c3ccccc3n2)cc1 | 0.02
10 | Cn1c(=O)[nH]c(=O)c2c1nc(N1CCOCC1)n2CC(O)COc1ccccc1 (centres undefined) | -1.6
11 | O=C(CCN1C(=O)c2cccc3cccc(c23)C1=O)NCc1ccco1 | -0.82
12 | CCOC(=O)c1cnc(SCc2ccccc2Cl)nc1N | 0.02
13 | CCOC(=O)c1nc(NC(=O)COc2ccc(C)cc2)sc1C | 1.1
14 | O=S(=O)(NCC1CCCO1)c1cc(Br)c(Br)s1 (centres undefined) | 0.72
15 | COc1ccc(CNC(=O)CCn2c(=O)c3sccc3n(Cc3cccc(Cl)c3)c2=O)cc1 | -0.52
16 | CCOCCCNC(=O)c1cn(C)c(=O)c2c1c1ccccc1n2C | -2.2
17 | O=C(NCCCN1CCCC1=O)c1ccc2c(=O)n(Cc3cccc(Br)c3)c(=S)[nH]c2c1 | -0.85
18 | Cc1cc2sc(NC(=O)c3ccc(N)cc3)nc2cc1N | 0.93
19 | COc1cccc(C2C(C(=O)Nc3ccccc3OC)=C(C)NC3=C2C(=O)CC(c2ccc(OC)c(OC)c2)C3)c1 (centres undefined) | -0.41
20 | Cc1ccc2c(c1)NC(=S)CC(c1ccccc1)=N2 | -0.64
21 | COc1ccc(N2CCSC2)cc1 | -0.41
22 | COc1ccc(Nc2c3c(nc4ccc(Cl)cc24)CCC3)cc1OC | -2
23 | Cc1c(Cl)c(-c2n[nH]c(=S)n2Cc2ccco2)nn1C | -0.77
24 | Cc1nc2nc(-c3ccccc3)cn2nc1C | -0.77
25 | Cc1ccc(Cn2nc(C)c(NC(=O)c3cc(-c4cccc(Cl)c4)on3)c2C)cc1 | -0.54
26 | Cc1cccc(N2CCN(C(=O)c3ccc(S(=O)(=O)Cc4ccccc4F)c([N+](=O)[O-])c3)CC2C)c1 (centres undefined) | -0.42
27 | NC(=O)c1c(Cl)nc(Cl)c(Cl)c1Cl | -0.46
28 | CC(C)Cc1ccc(S(=O)(=O)Nc2cccc(Cl)c2)cc1 | 1.5
29 | O=C(CSc1nc2ccccc2o1)N1c2ccccc2Sc2ccc(Cl)cc21 | 0.96
30 | CCCCOc1ccc(C2C3=C(CC(C)(C)CC3=O)Nc3ccccc3N2C(=O)C(F)(F)F)cc1 (centres undefined) | -0.85
31 | CCCOc1ccc(C(=O)Nc2ccc3oc(-c4ccccc4C)nc3c2)cc1 | -0.1
32 | CC(=O)c1cccc(Nc2nc(-c3ccc(Cl)cc3)nc3ccccc23)c1 | -0.11
33 | Cc1onc(-c2ccccc2)c1C(=O)Nc1nc2ccccc2[nH]1 | -0.54
34 | COc1ccc(C2C(=O)c3ccccc3C2=O)c(OC)c1 | -0.18
35 | Cc1cc(-c2csc(Nc3ccccn3)n2)ccc1F | 0.01
36 | CCOc1ccccc1C1C(C(=O)N(CC)CC)=C(C)Nc2nc3ccccc3n21 (centres undefined) | -0.41

4 of these compounds in a different format:
25) Cc1ccc(Cn2nc(C)c(NC(=O)c3cc(-c4cccc(Cl)c4)on3)c2C)cc1
  Measles inh = -0.54

32) CC(=O)c1cccc(Nc2nc(-c3ccc(Cl)cc3)nc3ccccc23)c1
  Measles inh = -0.11

30) CCCCOc1ccc(C2C3=C(CC(C)(C)CC3=O)Nc3ccccc3N2C(=O)C(F)(F)F)cc1 (centres undefined)
  Measles inh = -0.85

33) Cc1onc(-c2ccccc2)c1C(=O)Nc1nc2ccccc2[nH]1
  Measles inh = -0.54

The results go on:
item | SMILES | Measles inh
37 | O=C(O)c1ccc(SCc2ccccc2F)c([N+](=O)[O-])c1 | -0.14
38 | Cc1ccc(C2=CC(c3ccc(F)cc3)n3c(nc4ccccc43)N2)cc1 (centres undefined) | -0.24
39 | c1ccc2[nH]c(CSc3nc4ccccc4s3)nc2c1 | 0.84
40 | CC1CC(C)CN(S(=O)(=O)c2ccc(C(=O)Nc3nnc(-c4ccccc4Cl)o3)cc2)C1 (centres undefined) | 0.27
41 | Cc1cccnc1NC(=O)c1ccc(NC(=O)C2CCCCC2)cc1 | -0.54
42 | O=C(NCCCN1CCN(c2cccc(Cl)c2)CC1)C1CCC(Cn2c(=O)[nH]c3ccsc3c2=O)CC1 (centres undefined) | -1
43 | CCOC(=O)c1c(-c2ccc(OC)cc2)csc1N=CC1C(=O)CCCC1=O | 1.7
44 | COc1ccccc1NC(=O)c1cc(-c2ccccc2)nc2c(C)cccc12 | 0.27
45 | Cc1cc2oc(=O)c3c(c2c2occ(-c4ccccc4)c12)CCC3 | -0.18
46 | CCOC(=O)c1cccc(NS(=O)(=O)c2ccc3c(c2)CCC(=O)N3)c1 | -1.2
47 | Nc1ncnc2[nH]c(=S)[nH]c12 | -0.74
48 | Cc1cc(Cl)ccc1OC(C)C(=O)n1cnc2ccccc21 (centres undefined) | 1.4
49 | COC(=O)CN1C=C(C(=O)OC)C(c2ccc(Cl)cc2)C(C(=O)OC)=C1 | -0.33
50 | COC(=O)C1=C(C)N(c2cccc(C(F)(F)F)c2)C(=O)C1 | 0.97
51 | CCOC(=O)c1cccc(N2C(=O)C3C(C2=O)C2C=CC3C23CC3)c1 (centres undefined) | 0.26
52 | Cc1ccc(-n2c(C)nc3c(cnn3-c3ccccc3)c2=O)cc1 | -0.15
53 | O=C1CCCC2=C1C(c1cccc(O)c1)n1nc(SCc3ccccc3F)nc1N2 (centres undefined) | -0.55
54 | Cc1cccc(N2CCN(C(=O)CCC3Nc4c5ccccc5nc(=S)n4C3=O)CC2)c1C (centres undefined) | -0.25
55 | Cc1ccc(Nc2sc(C(=O)c3ccccc3)c(N)c2C(N)=O)cc1 | 0.93
56 | Cc1cccc(CN2CCN(CC(=O)NCc3ccc(F)cc3)C2=O)c1 | -1.1
57 | Cc1ccc(C)c(S(=O)(=O)N2CCN(S(=O)(=O)c3cc(C)ccc3C)C(C)C2)c1 (centres undefined) | -0.44
58 | COc1cc(C(=O)N2CCN(C(C)C)CC2)cc(OC)c1OC | -0.26
59 | COc1cccc(NC(=O)CSc2nc(NCc3ccc4c(c3)OCO4)c3ccccc3n2)c1 | 1.7
60 | Cc1ccc(CNS(=O)(=O)c2cccc3cccnc23)cc1 | -0.4
61 | CC(=O)N1N=C(c2ccc(F)cc2)CC1(O)C(F)(F)F (centres undefined) | 0.38
62 | CCN(CCNC(=O)C1CCCN(S(=O)(=O)CC)C1)c1ccccc1 (centres undefined) | -0.58
63 | CSc1ccc(C2C3C(=O)N(c4ccccc4)C(=O)C3ON2c2ccccc2)cc1 (centres undefined) | -0.34
64 | COc1ccc(CCNC(=O)C2CCN(S(=O)(=O)N3CCCC3)CC2)cc1OC | -0.28
65 | CC(=O)c1cccc(NC(=O)C2CCCN(S(=O)(=O)c3cccc4nonc34)C2)c1 (centres undefined) | -0.59
66 | COc1cc(C2SCC(=O)N2Cc2ccco2)ccc1O (centres undefined) | 1.1
67 | COc1ccc(C2Oc3c(cccc3OC)C=C2[N+](=O)[O-])cc1OC (centres undefined) | 1.2
68 | CCC(C)NC(=O)C1CCC(CNS(=O)(=O)c2ccc(Cl)cc2)CC1 (centres undefined) | 0.38
69 | O=P1(CCl)COCc2ccccc21 (centres undefined) | 0.85
70 | COc1cc(C2Nc3ccc4ncccc4c3C3=C2C(=O)CCC3)cc(OC)c1OC (centres undefined) | 0.12
71 | CC(=O)Nc1ccc(NC(=O)CSc2n[nH]c(C)n2)cc1 | 0.41
72 | O=C(CN1CCOCC1)Nc1c(C(=O)c2ccc(F)cc2)oc2ccccc12 | 0.01
73 | CC(=O)c1ccc(NC(=O)CCCCCN2C(=O)c3ccccc3C2=O)cc1 | 1.2
74 | O=C(c1ccco1)N1CCN(C(=O)c2ccco2)CC1 | -0.34
75 | CCCCNC(=O)c1nnn(-c2ccccc2)c1N | 0.05
76 | N#Cc1ccccc1Cn1c(=O)n(CCC(=O)NCc2ccco2)c(=O)c2sccc21 | -0.33
77 | O=[N+]([O-])c1ccc(-c2csc(Nc3ccc4c(c3)OCO4)n2)cc1 | -0.59
78 | CC(=O)c1c(C)n(CCO)c2ccc(O)cc12 | 0
79 | CCCCSc1nnc2c(n1)OC(c1cc(OC)c(OC)cc1OC)N(C(C)=O)c1ccccc1-2 (centres undefined) | 0.57
80 | O=C1N(Cc2ccc(F)cc2)c2cccc3cccc(c23)N1Cc1ccc(F)cc1 | 0.68
81 | Cc1cc(C)c(C#N)c(SCc2nnc(-c3ccc(Cl)cc3)o2)n1 | 0.9
82 | CCCCn1c(SCC(=O)Nc2cc(C)on2)nc2ccsc2c1=O | -0.93
83 | COc1cc2c(=O)n(Cc3ccccc3Cl)c(=O)n(CC(=O)Nc3ccccc3)c2cc1OC | -0.19
84 | CC(=Cc1nsc(Nc2ccccc2)n1)NCc1ccc(C)cc1 | -0.52

2 of these compounds, set out differently:
78) CC(=O)c1c(C)n(CCO)c2ccc(O)cc12
- Measles inh: 0

83) COc1cc2c(=O)n(Cc3ccccc3Cl)c(=O)n(CC(=O)Nc3ccccc3)c2cc1OC
- Measles inh: -0.19

Next structures
item | SMILES | Measles inh
85 | COc1cc(S(=O)(=O)NCCOC23CC4CC(CC(C4)C2)C3)ccc1Cl | -1.1
86 | COc1ccc(-n2nc(C(=O)Nc3cc([N+](=O)[O-])ccc3OC)c3ccccc3c2=O)c(OC)c1 | -0.58
87 | CCN(c1cccc(C)c1)S(=O)(=O)c1ccc2c(c1)CCN2C(=O)C1CC1 | 0.03
88 | CCN(CCCn1c(=S)[nH]c2cc3c(cc2c1=O)OCO3)c1ccccc1 | 2.3
89 | Cc1ccc(/C(O)=C2\C(=O)C(=O)N(CCCN(C)C)C2c2cccnc2)cc1 (centres undefined) | -1.8
90 | CN1CCN(Cc2cc(Br)c3cccnc3c2O)CC1 | 0.89
91 | Cc1cccc(Nc2ncnc3c2cnn3-c2ccc(C)cc2C)c1 | -1.4
92 | CCC(=O)N1CCc2cc(S(=O)(=O)NC(CC(C)C)C(=O)N3CCC(C)CC3)ccc21 (centres undefined) | -0.58
93 | COC(=O)c1c(C)oc2c1cc(NS(=O)(=O)c1ccc(Cl)c([N+](=O)[O-])c1)c1ccccc12 | -0.4
94 | COc1ccccc1C(=O)N1c2ccccc2Sc2ccc(C(F)(F)F)cc21 | 0.39
95 | C=CCn1c(=S)[nH]c2cc(C(=O)Nc3cccc(C(F)(F)F)c3)ccc2c1=O | -0.99
96 | C=CCn1c(SCCCC)nc2sc3c(c2c1=O)CCC3 | 1.5
97 | Cc1ccc(NC(=O)c2cncc(Br)c2)c(Br)c1 | -0.17
98 | Cc1ccc2c(c1)C(=Cc1ccc(Br)cc1)c1cccnc1-2 | 0.98
99 | COc1cc2c(cc1NC(=O)c1cccs1)oc1ccccc12 | 0.05
100 | Cc1nc([N+](=O)[O-])cn1Cc1cccc(C(F)(F)F)c1 | -0.73
101 | O=[N+]([O-])c1ccc(N2CCCC2)cc1N1CCCCC1 | -1.7
102 | Cc1cc(C)c(N2C(=O)C3C(C2=O)C2C=CC3C23CC3)c(C)c1 (centres undefined) | -0.6
103 | O=c1c2c(nc(SCc3ccc(C(F)(F)F)cc3)n1-c1ccccc1)CCS2 | -1.4
104 | CCN1CCC(=O)N(C)c2ccccc21 | -0.81
105 | O=C(CCN1CCCCC1)Nc1ccc(F)cc1 | -0.05
106 | COc1ccc(OC)c(NC2=CC(=O)CC(C)(C)C2)c1 | 0.15
107 | O=C(Nc1ccccc1)c1cc(S(=O)(=O)Nc2cccnc2)cs1 | -0.18
108 | c1ccn2c(Nc3ccc4c(c3)OCCO4)c(-c3ccsc3)nc2c1 | -0.77
109 | O=C1C(C23CC4CC(CC(C4)C2)C3)CCC1C12CC3CC(CC(C3)C1)C2 (centres undefined) | -1.2
110 | COc1ccc(C2NC(=O)NC(C)=C2C(=O)OCC2CCCO2)cc1OCc1ccccc1 (centres undefined) | 1.5
111 | CC(C)c1ccc(C(NC(=O)C2CCCCC2)c2ccc3cccnc3c2O)cc1 (centres undefined) | -0.05
112 | CCOC(=O)CN1C(=O)C(O)(CC(=O)c2ccc(OC)c([N+](=O)[O-])c2)c2ccccc21 (centres undefined) | -0.75
113 | COc1ccc(-n2cnc3cc(C(=O)NCCc4ccccc4)ccc32)cc1 | 0.36
114 | CC(=O)Nc1ccc(NC(=O)C2(c3ccccc3)CCCC2)cc1 | 0.05
115 | CCn1c(-c2ccc(S(=O)(=O)N3CCOCC3)cc2)csc1=Nc1ccc(Oc2ccccc2)cc1 | -1.3
116 | COc1ccc(C2C3C(=O)N(c4ccc(C)cc4)C(=O)C3N3CCCN23)cc1 (centres undefined) | -0.96
117 | O=C1C(Nc2ccccc2)=C(n2nnc3ccccc32)C(=O)c2ccccc21 | -0.83
118 | O=C(Nc1ccc(I)cc1)c1cccc([N+](=O)[O-])c1 | -0.61
119 | C=CCNc1nc(-c2cccc([N+](=O)[O-])c2)cs1 | 1.2
120 | COc1ccccc1NC(=O)CNC(=O)Cn1c(C)cc2ccccc2c1=O | 0.19
121 | NS(=O)(=O)c1ccc(CCNC(=O)c2ccc3c(=O)n(Cc4ccco4)c(=S)[nH]c3c2)cc1 | 0.48
122 | CCOC(=O)c1ccc2c(c1)sc1nc(-c3cc4cc(OC)ccc4oc3=O)cn12 | 0.65
123 | CCCC1CCC(C(=O)Nc2cc3cc(Br)ccc3oc2=O)CC1 (centres undefined) | 0.47
124 | CCCC1NC(=S)N(C2CCCCC2)C1=O (centres undefined) | -0.2
125 | O=C1c2ccccc2-c2onc3c(N4CCCC4)cc(Nc4ccccc4)c1c23 | -0.8
126 | CCN1C(=O)c2ccc(C(=O)Nc3cc(OC)c(OC)cc3C(=O)O)cc2C1=O | -0.52
127 | CC1=C(C(=O)OC(C)C)C(c2ccc(O)c([N+](=O)[O-])c2)n2ncnc2N1 (centres undefined) | 1.3
128 | O=S(=O)(NCCSc1ccc(Cl)cc1)c1ccc(C2CCCCC2)cc1 | -0.71
129 | Cc1ccc(S(=O)(=O)N2CC(=O)Nc3ccccc32)cc1C | -0.97
